PrP 5UTR inh: inhibition of PrP 5' UTR reporter expression. cell-based PrP 5' UTR mRNA reporter, plate reader. inhibition, % (concentration not given with the values). 340,000 tested, 0.35% active. AID 488862;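 active = every replicate at 50% or more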;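 also: 0 = median of the neutral control wells; tested in H4 reporter cells; numbers are from one replicate; inactives centre near -14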
Mtb hypoxia rep: reduces hypoxia-regulated biosensor signal in M. tuberculosis. M. tuberculosis hypoxia-regulated fluorescent reporter, fluorescence. fluorescence inhibition, % (concentration not given with the values). 300,000 tested, 0.1% active. AID 1159583;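 active = 35 to 45% if threefold the growth effect, above 45% if 1.5-fold the growth effect; inactive = the rest, general growth blockers included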;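 also: wells of about 50 µL received 100 nL stock; 0% = vehicle wells and 100% = reference inhibitor wells; whole bacteria with a GFP reporter of the hypoxia response; strong numbers were not always called active; many hits fall short of the cut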
BJeLR lethal: kills HRASV12-expressing BJeLR cells; BJeLR (HRASV12) viability, CellTiter-Glo ATP luminescence, 48 h; reference of the scale not given here; inhibition, % (no concentration beside the values); 300,000 tested, 0.17% active; AID 1554;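 active = replicate mean above 50%; inconclusive = above 50% but judged a plate artefact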;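 also: 50 nL library stock added to about 25 µL; numbers are from one replicate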
Sa ugtP lethal: compounds lethal to S. aureus RN4220 ugtP deletion mutant. AID 1259309. growth inhibition, % (test concentration not listed). 330,000 tested, 0.54% active. OD600 growth, 16 h; some inactives read as strong as hits;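 active = z-score under -3 and OD600 up to 0.15 on both plates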;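 also: plate controls were untreated wells for no effect and antibiotic for full effect; wells of about 80 µL received 100 nL stock; the first replicate is given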
Bead autofluor: flagged as autofluorescent in microsphere protease counterscreen | compound autofluorescence counterscreen, microsphere flow cytometry; stronger effect = higher value | fluorescence intensity (no concentration beside the values) | 360,000 tested, 3.1% active;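 active = at least 3 SD above the mean of all compounds, about 16000 in these data; inconclusive = too few beads counted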;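 also: 100 nL of 1 mM stock went into each well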
Sa RN4220 lethal: kills Staphylococcus aureus RN4220; AID 1259311; inhibition, % (no concentration beside the values); 330,000 tested, 0.33% active; S. aureus RN4220 growth, OD600, 16 h;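 active = z-score of -3 or lower and OD600 up to 0.18 on both plates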;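 also: plate controls were untreated cells for no effect and reference antibiotic for full effect; stock transfer was 100 nL into about 80 µL; one replicate is shown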
Mtb hypoxia rep growth: second read-out of Mtb hypoxia rep, no call of its own (marks repeat the call); growth inhibition, %; measured here: M. tuberculosis growth (absorbance);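 0% = vehicle and 100% = reference antibiotic; read after six days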
Active calls of the source: *; ? = inconclusive; / = no result given; & = joins results of further samples.

no.	smiles	PrP 5UTR inh	Mtb hypoxia rep	Mtb hypoxia rep growth	BJeLR lethal	Sa ugtP lethal	Bead autofluor	Sa RN4220 lethal
1	CCCCNC(=O)OC1CC2CCN3C(=O)CCCC(C1CC)C23 (stereo not drawn)	/	10&3	13&3	/	5&1	/	5.7&5.6
2	CC1CC=CC2C1C(=O)N(Cc1ccccc1)C2c1ccc(Br)cc1F (stereo not drawn)	/	19	15	/	3	/	-10.0
3	COC(=O)c1ccncc1N	-10	9	1	-4	8	4365	6.1
4	CCOC(=O)C1=C(O)/C(=C/N(C)C)N=C1C	-1	/	/	-3	-6	2745	0.2
5	Cc1ccc(C(=O)NCC(=O)Nc2cc(C)ccn2)cc1	-58	9	1	7	10	4936	4.0
6	Cc1cccc(-n2c(SCC(=O)Nc3nonc3C)nnc2-c2ccoc2C)c1	-16	/	/	1	3	5167	3.7
7	O=C1c2ccccc2-c2c1cccc2C(=O)N1CCCCCC1	14	/	/	-1	5	2434	6.4
8	CCOc1ccc(S(=O)(=O)N2CCC(C(=O)NCc3ccncc3)CC2)cc1C	-14	9	9	-4	2	3841	0.3
9	CC(C)CN=C(NS(=O)(=O)c1ccccc1)C(Cl)(Cl)Cl	-17	11	-1	-9	19	2544	13
10	CC(=NNC(=O)c1ccco1)c1cc(Cl)sc1Cl	/	8	14	/	-2	/	1.3
11	CCOc1ccc(-c2nc(CCl)cs2)cc1OC	-25	/	/	-2	/	4362	/
12	COc1cc2c(cc1OC)C(C)N(C(=O)c1cccs1)CC2 (stereo not drawn)	-24	4	10	-9	5	3748	9.5
13	CC(=O)c1cc(CN2CCCCC2)cc(OC(C)C)c1	-15	7	19	3	-2	2196	0.8
14	C=CCSc1ncc(C#N)c(N)n1	-10	6	8	-11	2	20496*	9.1
15	CCNC(=O)c1sccc1-n1cccc1	-1	5	5	-10	-2	4700	-4.4
16	COc1ccc(NC(=O)c2cccc(NC(=O)c3ccccc3)c2)cc1	-26	-8	-3	-5	0	3452	-0.7
17	Cc1c(C)c2cc(Cl)c(OCc3nn[nH]n3)cc2oc1=O	-21	/	/	0	3	2393	-2.4
18	Cc1ccc(-n2nc3c(c2NC(=O)c2ccc4c(c2)OCO4)CS(=O)C3)cc1 (stereo not drawn)	-91	0	6	3	-3	3211	3.4
19	COc1ccccc1N1CCN(C(=O)c2ccc3c(c2)CCN3S(C)(=O)=O)CC1	-1	6	0	3	5	?	1.7
20	CCc1sc(C(=O)NC2CCN(C)CC2)cc1Br	-17	2	3	-9	0	8139	-3.2
21	Cc1ccc(CS(=O)Cc2ccc(C(=O)NCc3ccc4c(c3)OCO4)o2)cc1 (stereo not drawn)	-14	1	8	4	6	5404	1.3
22	CCCOc1cccc(-c2cc(C(=O)NNC(=S)NCC)c3ccccc3n2)c1	-7	8	8	-1	-9	24056*	11
23	CCOc1ccc(C(=O)CCC(=O)O)cc1	13	-1	6	-3	10	10329	2.7
24	FC(F)(F)c1cccc(Sc2cc(C(F)(F)F)nc(-c3ccccn3)n2)c1	-3	22	28	-2	3	9193	-5.4
25	C[C@]12c3[nH]c4cc(-c5ccco5)ccc4c3CCN1C(=O)[C@@H](CC(=O)NCCc1ccccn1)C[C@@H]2C(=O)N1CCOCC1	-7	-7	10	/	-4	4142	1.9
26	O=C1C2C(C(=O)N1N=Cc1cc([N+](=O)[O-])ccc1O)C1C=CC2C12CC2 (stereo not drawn)	/	3	4	/	81	/	93*
27	CCC(C)[C@@H](N)C(=O)N/N=C/c1ccc2ncccc2c1 (stereo partly drawn)	-13	/	/	-20	/	2569	/
28	CCOc1ccc(CN2CCN(Cc3cccn3-c3nccs3)CC2CCO)cc1 (stereo not drawn)	-11	11	-1	-3	0	3711	0.3
29	COc1cc([N+](=O)[O-])ccc1NC(=O)COC(=O)c1ccc(NC(N)=O)cc1	-5	15	6	9	3	5041	1.6
30	NS(=O)(=O)c1ccccc1NC(=O)c1c(O)c2ccccc2[nH]c1=O	-74	18	8	-7	-1	4001	9.7

3 structures from above, arranged by number of heavy atoms, ascending:
no.	smiles	PrP 5UTR inh	Mtb hypoxia rep	Mtb hypoxia rep growth	BJeLR lethal	Sa ugtP lethal	Bead autofluor	Sa RN4220 lethal
3	COC(=O)c1ccncc1N	-10	9	1	-4	8	4365	6.1
30	NS(=O)(=O)c1ccccc1NC(=O)c1c(O)c2ccccc2[nH]c1=O	-74	18	8	-7	-1	4001	9.7
18	Cc1ccc(-n2nc3c(c2NC(=O)c2ccc4c(c2)OCO4)CS(=O)C3)cc1 (stereo not drawn)	-91	0	6	3	-3	3211	3.4

(next part)
no.	smiles	PrP 5UTR inh	Mtb hypoxia rep	Mtb hypoxia rep growth	BJeLR lethal	Sa ugtP lethal	Bead autofluor	Sa RN4220 lethal
31	Cc1cccc2cc(C(c3nnnn3C3CCCC3)N3CCOCC3)c(=O)[nH]c12 (stereo not drawn)	-1	0	13	9	0	21873*	2.6
32	CCC(=O)c1ccc(OC(=O)C2CCN(C3=NS(=O)(=O)c4ccccc43)CC2)cc1	0	5	7	/	11	3042	6.6
33	NC(=O)C1CC2(CC(c3cccc(NC(=O)COc4ccc(Cl)cc4)c3)=NO2)CN1C(=O)c1ccccc1C(=O)c1ccccc1 (stereo not drawn)	/	15	5	/	19	/	0.7
34	O=C(Nc1nccs1)C1CC(=O)N(Cc2ccco2)C1 (stereo not drawn)	-16	0	8	1	2	4478	4.8
35	CCC1C(OC(=O)NCc2ccccc2)CC2CCN3C(=O)CCCC1C23 (stereo not drawn)	/	1	9	/	7	/	4.0
36	O=C(CSc1nnc(C2COc3ccccc3O2)o1)N1CCCCC1 (stereo not drawn)	-17	/	/	-4	3	6150	3.6
37	COc1ccccc1CCNC(=O)C(=O)c1cn(CC(=O)N2CCCC2)c2ccccc12	13	1	-3	5	11	4740	3.2
38	c1ccc(-c2cc(N3CCOCC3)nc(-c3ccccc3)n2)cc1	0	2	-4	-3	-14	6906	-3.8
39	COC(=O)c1c(S(=O)(=O)N2CCOCC2)c(C)n(C)c1C	-14	4	-5	-1	18	4566	7.7
40	CCCN1C(=O)c2ccccc2NC1c1cc(OC)c(OC)c(OC)c1 (stereo not drawn)	-28	/	/	-3	6	4769	-0.8
41	Cc1cccc(N2C(=O)CC(c3ccc(F)cc3)C3=C2COC3=O)c1 (stereo not drawn)	-6	5	-2	1	5	3417	-1.0
42	Cc1ccc(CCNC(=O)C2CCC(=O)N2CCc2ccccc2)cc1 (stereo not drawn)	-27	-2	-3	-12	6	3838	3.6
43	CN(CC(=O)Nc1c(Cl)cccc1Cl)C(=O)CNC(=O)c1ccc2c(c1)OCO2	-13	2	-2	-8	3	?	2.1
44	Cn1c(COc2ccc(Cl)cc2Cl)nnc1SCC(=O)NCC1CCCO1 (stereo not drawn)	-10	5	8	-1	2	3483	4.2
45	COC(=O)C1=C(C)N(c2ccc(OC)c(OC)c2)C(=O)/C1=C\c1cccs1	-19	8	-2	6	2	4287	0.9
46	CC(C)c1ccc(NC2CCCN(C(=O)CN3CCOC3=O)C2)cc1 (stereo not drawn)	3	12	0	-9	8	5739	3.1
47	CC(C)C(NS(=O)(=O)c1cccc(C(F)(F)F)c1)C(=O)N1CCc2ccccc2C1 (stereo not drawn)	-21	-1	1	-2	-2	3866	5.5
48	CCOC(=O)c1sc2ncn(N=CN(C)C)c(=O)c2c1C	/	15	6	/	10	/	3.4
49	CC(C)c1[nH]nc2c1C(c1cccc(OC(=O)N3CCOCC3)c1)C(C#N)=C(N)O2 (stereo not drawn)	-18	/	/	-12	-3	4253	-0.7
50	O=C(Nc1cccc(C(=O)N2CCCc3ccccc32)c1)c1ccccc1	-10	14	5	-3	22	4630	4.7
51	CCOC(=O)c1c(N2C(=O)Nc3ccccc3N2O)sc2c1CCCC2	-19	-9	7	-4	-11	1919	8.4
52	COc1ccc(/C=C2\SC(=S)NC2=O)cc1OS(=O)(=O)c1ccc(NC(C)=O)cc1	-31	15	9	17	15	4005	3.5
53	CCOC(=O)c1oc2ccccc2c1NC(=O)COC	-20	6	2	-4	5	11555	0.9
54	O=[N+]([O-])c1cc(S(=O)(=O)C(F)(F)F)ccc1NCC1CCCO1 (stereo not drawn)	-1	-11	2	-4	2	5963	0.5
55	Cc1ccc(OCCN2C(=O)C(=O)c3cccc(C)c32)cc1	-10	-2	-7	-2	6	3648	5.4
56	CCc1ccc(NC(=O)CCNC(=O)Cn2ccc3ccccc3c2=O)cc1	1	0	2	-18	3	6335	4.2
57	CC(C)=CCSc1nnc([C@@H](N)Cc2c[nH]c3ccccc23)o1	-8	6	4	4	2	7689	6.2
58	COc1ccccc1NS(=O)(=O)c1ccc(N/N=C/c2ccccc2OCC(=O)O)c([N+](=O)[O-])c1	-18	/	/	3	/	3939	/
59	N/C(CN1CCCC1=O)=N\OC(=O)c1ccc(Cl)c(Cl)c1	-17	-4	0	-6	-8	7242	3.4
60	COc1ccc(NC(=O)C2CC2)cc1NS(=O)(=O)c1ccc(F)cc1	-14	5	13	-6	0	9889	-0.8
61	Cc1ccc(-n2nnnc2C(=Cc2ccc(N(C)C)cc2)c2nnnn2-c2ccc(C)cc2)cc1	-21	5	13	-7	9	12296	-1.0
62	CC(C)CCNC(=O)CN(Cc1cccs1)C(=O)CCC(=O)Nc1nccs1	-23	9	16	1	5	6021	1.6
63	O=C(NCCN1CCOCC1)c1cc([N+](=O)[O-])cc([N+](=O)[O-])c1	-26	/	/	-8	15	3284	3.9
64	O=C(O)c1cc(-n2nnnc2SCc2ccc([N+](=O)[O-])cc2)ccc1Cl	-12	15	2	-1	7	3097	0.8
65	Brc1ccccc1-c1nnc(SCc2nc3ccccc3s2)o1	-57	16	7	-4	-7	2289	5.2
66	CCN(C(=O)C1CCCN1S(=O)(=O)c1cccc2nsnc12)c1ccccc1 (stereo not drawn)	-9	6	4	1	-1	3439	5.5
67	O=C(Nc1cccc(O)c1)c1cc(-c2cccs2)on1	-23	-2	11	6	2	5239	4.9
68	O=C(c1ccccc1)N1CCN(C2CC(=O)N(CCc3ccccc3)C2=O)CC1 (stereo not drawn)	-4	1	-1	-5	13	7280	2.7
69	COC(=O)Cn1c(=NC(=O)CSCC(=O)NC2CCCCC2)sc2cc(OC)ccc21	-14	/	/	7	8	2199	2.4
70	COc1cc(NC(=O)CCc2nc(-c3cccs3)no2)cc(OC)c1OC	-7	5	0	-5	-3	3912	0.5
71	Nc1cc(=O)[nH]c(SC/C=C/c2ccccc2)n1	-41	/	/	7	/	3024	/
72	CC/C(=N\N1CCCCCC1)c1c(O)n(-c2ccccc2C)c(=O)[nH]c1=O	-3	16	10	1	12	2512	2.1
73	O=C(COc1ccc2ccccc2c1)Nc1cccc2c1C(=O)NC2=O	/	-18	-9	2	9	/	3.5
74	ON=C(c1ccccc1)C(O)c1ccccc1 (stereo not drawn)	/	14	5	/	2	/	1.4
75	CCN(c1ccccc1)S(=O)(=O)c1ccc(Cl)c(C(=O)OCC(=O)NC(=O)C(C)C)c1	-36	8	7	9	8	4381	4.7
76	O=C(Nc1sc2c(c1C(=O)O)CCCC2)c1cccc(Cl)c1	-67	-13	-13	3	33	3482	46
77	COc1ccc([C@H]2/C=C\CN(S(=O)(=O)/C=C/c3ccccc3)[C@@H](C)C(=O)N2Cc2ccc(F)cc2)cc1	-11	/	/	7	/	3103	/
78	O=C(c1cccc([N+](=O)[O-])c1)c1ccc2[nH]c(=O)[nH]c2c1	4	5	4	-2	0	3747	8.4
79	COCc1[nH]nc2c1C(c1ccsc1)C(C#N)=C(N)O2 (stereo not drawn)	-26	3	3	-7	-6	4437	4.3
80	Oc1ccc(Br)cc1CNn1cnnc1	-8	21	-12	-2	7	2314	6.9

Continuation.
no.	smiles	PrP 5UTR inh	Mtb hypoxia rep	Mtb hypoxia rep growth	BJeLR lethal	Sa ugtP lethal	Bead autofluor	Sa RN4220 lethal
81	C=CCn1c(SCC(=O)c2c(N)n(C)c(=O)n(C)c2=O)nc2sc(CC)cc2c1=O	-48	1	13	-5	-4	3344	-17
82	Cc1cc(-c2ccc(Cl)cc2)c(C#N)c(N)n1	-7	9	4	11	-4	9139	3.3
83	CCN1CCN(c2ncnc3c2c(-c2ccccc2)cn3-c2ccc(F)cc2)CC1	3	1	12	7	-13	4070	-1.9
84	Nc1ccc(NC(=O)c2cccs2)cc1	-15	13	5	8	6	4593	8.2

Screening data (PubChem BioAssay)
